# HSV augment = HSV replication enhancement | HSV replication augmentation in cells, fold increase | maximum fold increase | 220,000 compounds, 0.005% hits | AID 1956;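 active means peak rise of 1.5-fold or more in the series; tested in PC3 cells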;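 further: first round at 10 µM; read as green reporter fluorescence; hits show the peak of a series up to 25 µM; 1 = signal of infected wells without compound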
# GALR2 ag = agonists of human galanin receptor 2 (GALR2); GALR2-expressing cells, agonist activation read-out; activation, %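 (tested at 5 µM)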; 140,000 compounds, 0.48% hits;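 active means above mean plus 3 SD of all compounds, about 5% in these data, not always enough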;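 further: 0% = vehicle buffer wells and 100% = reference agonist at full effect; tested in CHO reporter cells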
# Target sequence (O43603 whole entry, looked up): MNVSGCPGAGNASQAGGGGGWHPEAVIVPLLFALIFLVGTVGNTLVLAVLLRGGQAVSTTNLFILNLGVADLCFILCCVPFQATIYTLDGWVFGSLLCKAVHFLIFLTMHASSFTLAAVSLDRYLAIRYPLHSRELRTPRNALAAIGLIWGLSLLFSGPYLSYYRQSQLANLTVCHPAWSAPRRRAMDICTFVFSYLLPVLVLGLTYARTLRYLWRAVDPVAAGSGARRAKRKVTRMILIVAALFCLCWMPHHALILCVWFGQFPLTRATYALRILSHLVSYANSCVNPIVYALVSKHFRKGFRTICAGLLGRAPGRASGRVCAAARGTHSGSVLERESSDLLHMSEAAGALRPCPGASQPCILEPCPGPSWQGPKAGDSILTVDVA
# Insulin prom inh = TRM-6 insulin promoter activity inhibition. TRM-6 cells (human fetal islet line), insulin promoter-eGFP reporter, imaging; reporter expression induced with tamoxifen. inhibition, % at 2 µM. 130,000 compounds, 0.9% hits;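 active means inhibition above the mean plus 3 SD, with well images judged a real hit on visual review, cut at about 60% in these data, passing the limit was not always enough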
# RGS16-Gao HTS = regulators of human RGS16-Galphao interaction; 220,000 compounds, 0.38% hits; binding response (% of control), % at 10 µM; bead-based flow cytometry RGS16-Galphao binding, fluorescence; actives lie on both sides; O15492+P09471;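 active means below 25% or above 175%, edge rows of some plates excepted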;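 further: Galphao activated by GDP with aluminum fluoride before binding; 100% = wells without compound and 0% = beads without RGS; some results beyond the cut were filed as inactive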
# Target sequence (O15492 whole entry, looked up): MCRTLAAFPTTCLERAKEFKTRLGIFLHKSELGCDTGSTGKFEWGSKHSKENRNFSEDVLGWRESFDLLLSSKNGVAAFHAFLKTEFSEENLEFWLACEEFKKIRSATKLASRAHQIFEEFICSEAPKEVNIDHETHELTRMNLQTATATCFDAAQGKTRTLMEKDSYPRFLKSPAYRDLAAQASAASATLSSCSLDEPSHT
# Target sequence (P09471 whole entry, looked up): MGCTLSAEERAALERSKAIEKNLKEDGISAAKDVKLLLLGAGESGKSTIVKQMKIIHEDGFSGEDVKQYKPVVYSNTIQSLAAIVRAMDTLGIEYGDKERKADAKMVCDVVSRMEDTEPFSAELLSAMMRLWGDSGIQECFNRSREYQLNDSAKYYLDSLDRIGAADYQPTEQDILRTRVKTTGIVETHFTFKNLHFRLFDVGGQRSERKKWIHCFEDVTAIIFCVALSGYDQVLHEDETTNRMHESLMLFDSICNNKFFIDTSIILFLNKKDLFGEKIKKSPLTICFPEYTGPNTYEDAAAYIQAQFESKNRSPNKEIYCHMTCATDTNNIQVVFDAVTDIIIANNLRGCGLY
# PKD1 kinase inh = blocks activity of human protein kinase D1; Q15139; PKD1 kinase fluorescence polarization assay; inhibition, %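 (about 10 µM by stock and volumes)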; 200,000 compounds, 0.056% hits;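 active means inhibition of 50% or more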;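 further: controls were vehicle for no effect and a reference inhibitor for full effect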
# Insulin prom inh cell count = also measured in Insulin prom inh; calls as there; normalized cell count, %; measured here: cell count, toxicity; reference of the scale not given here;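 cells exposed to compound for 48 h; stained nuclei by imaging scaled within each plate; lower means fewer cells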
# HSV augment primary fold = recorded beside HSV augment, whose call it bears; fold increase; compound at 10 µM; measured here: primary screen fold increase 10 uM; tested in PC3 cells;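 GFP signal in the first replicate; 1 = infected wells without compound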
# Starred values were filed as active, the others as inactive; i = inactive; . = not tested or not shown.
# The first 5 compounds (preview)
# Order of results – HSV augment | HSV augment primary fold | GALR2 ag | Insulin prom inh | Insulin prom inh cell count | RGS16-Gao HTS | PKD1 kinase inh
CCC(C)[C@H](NC(=O)Nc1ccc(C)cc1C)C(=O)O (stereo partly specified)
    i | 0.9 | . | . | . | 101 | .
CC(=O)C(/C=N/c1ncc(C(F)(F)F)cc1Cl)=C(\C)O
    i | 0.99 | . | 21 | 123 | 109 | 6
C=C(C)CNC(=S)N/N=C(\C)c1cccc(NC(C)=O)c1
    i | 0.98 | . | -54 | 87 | 111 | -3
CCOC(=O)C1(Cc2ccccc2)CCCN(C2CCN(C(C)=O)CC2)C1 (stereo unspecified)
    i | 1 | . | . | . | 97 | -1
O=C(CCCSc1nc2ccccc2s1)NC1=NCCS1
    i | 0.83 | -0.2 | -14 | 118 | 101 | -8

# All compounds of this part (from the top)
# Order of results – HSV augment | HSV augment primary fold | GALR2 ag | Insulin prom inh | Insulin prom inh cell count | RGS16-Gao HTS | PKD1 kinase inh
CCC(C)[C@H](NC(=O)Nc1ccc(C)cc1C)C(=O)O (stereo partly specified)
    i | 0.9 | . | . | . | 101 | .
CC(=O)C(/C=N/c1ncc(C(F)(F)F)cc1Cl)=C(\C)O
    i | 0.99 | . | 21 | 123 | 109 | 6
C=C(C)CNC(=S)N/N=C(\C)c1cccc(NC(C)=O)c1
    i | 0.98 | . | -54 | 87 | 111 | -3
CCOC(=O)C1(Cc2ccccc2)CCCN(C2CCN(C(C)=O)CC2)C1 (stereo unspecified)
    i | 1 | . | . | . | 97 | -1
O=C(CCCSc1nc2ccccc2s1)NC1=NCCS1
    i | 0.83 | -0.2 | -14 | 118 | 101 | -8
Cc1ccc(NC(=O)CN2C(=O)COc3ccc(C)cc32)nc1
    i | 0.92 | -2.0 | 19 | 96 | 108 | -8
O=C(C1CCN(C2CCN(C/C=C/c3ccccc3)CC2)CC1)N1CCOCC1
    i | 1.1 | . | . | . | 93 | 3
COc1ccc(C(=O)CSc2nnc(CC(=O)Nc3ccccc3OC)n2C)cc1
    i | 0.88 | . | -50 | 79 | 101 | -7
COc1ccc(/C=C(/NC(C)=O)C(=O)O)cc1
    . | . | -1.3 | . | . | 104 | 0
Cc1[nH]nc2c1C1(C(=O)Nc3ccc([N+](=O)[O-])cc31)C(C#N)=C(N)O2 (stereo unspecified)
    i | 0.97 | -1.9 | -45 | 141 | 101 | -8
CCOC(=O)c1nnc(-c2ccccc2)nc1N1CC(C)OC(C)C1 (stereo unspecified)
    i | 0.97 | . | . | . | 97 | -5
CC(=O)CCc1oc2c([N+](=O)[O-])cccc2c1-c1ccc(C)o1
    i | 0.93 | . | . | . | 128 | -1
CC(C)CNC(=O)NC(=O)COc1ncnc2sccc12
    i | 0.91 | -2.3 | -9 | 85 | 99 | -4
CCc1nc(SCC(=O)NNC(=O)C(C)C)c2ccccc2n1
    i | 0.95 | -1.7 | . | . | 108 | 2
Cc1ccc(C)c(NC(=S)N(CCc2ccncc2)C(C)C)c1
    i | 0.89 | . | . | . | 99 | 6
O=C(CSc1cccc[n+]1[O-])N1CCc2ccccc21
    i | 1.2 | . | . | . | 97 | .
COc1cc(/C=N\NC(=O)c2ccc(=O)[nH]n2)cc(OC)c1OC
    i | 0.84 | -0.4 | -13 | 76 | 71 | -15
Cc1ccc2nc(C)c(C(=O)NN=C3CCCCCC3)n2c1
    i | 0.74 | . | . | . | 108 | 1
COc1ccc(CN=C2NC(=O)CC(C(=O)Nc3ccc(F)cc3)S2)cc1 (stereo unspecified)
    i | 0.97 | -0.4 | . | . | 97 | -8
Cc1cc(C(F)(F)F)n2ncc(-c3cccc(Br)c3)c2n1
    i | 1 | . | 27 | 89 | 113 | -1
O=C(Cn1c(=O)[nH]c2ccsc2c1=O)NC1CCCCC1
    i | 0.92 | -2.4 | 3 | 157 | 118 | -22
Cc1c(C(=O)NCc2ccccc2)c(-c2ccccc2)nn1-c1ccccc1
    i | 1 | 0.1 | -107 | 99 | 97 | -4
Cc1ccc(NC(=O)Cn2c(=O)n(CCCCC(=O)NCc3ccco3)c(=O)c3ccccc32)cc1
    i | 0.88 | -3.3 | -29 | 75 | 102 | -5
COc1ccc(OC)c(NC(=O)CN2CCC(C(=O)c3ccc(C)cc3)CC2)c1
    i | 1 | 0.7 | . | . | 105 | 3
COc1cc(CCCN2C(=S)NC[C@H]2Cc2ccc(O)cc2)cc(OC)c1OC
    i | 0.99 | . | . | . | 116 | -5
O=C(N/N=C/c1ccc2c(c1)OCO2)c1sc2cc(Cl)ccc2c1Cl
    i | 0.64 | -1.3 | . | . | 53 | -1
CCCN1CCN(C(=O)c2cccc3c2C(=O)N(CCOC)C3)CC1
    i | 0.87 | -1.1 | . | . | 106 | -5
CN1C(=O)CC(N2CCN(c3ccc(Cl)cc3)CC2)C1=O (stereo unspecified)
    i | 0.99 | 0.8 | -10 | 129 | 100 | -7
CCOC(=O)c1cnc(-n2nc(C)cc2C)nc1Oc1ccc(C(=O)OC)cc1
    i | 1.1 | . | . | . | 98 | .
COCCNC(=O)C(C)Oc1ccccc1 (stereo unspecified)
    i | 1 | . | -17 | 126 | 102 | 1
COc1ccc(-c2nc(N3CCC(C)CC3)[nH]c(=O)c2C#N)cc1
    i | 0.85 | -1.6 | 71* | 34* | 91 | 6
CCCCc1c(C)nc(Nc2ccc(OC)cc2)[nH]c1=O
    i | 1.1 | -0.5 | 21 | 124 | 101 | 5
N#Cc1ccccc1NCc1ccccc1
    i | 0.93 | -0.9 | 44 | 168 | 99 | -10
Cc1c(Br)c(=O)oc2c(Br)c(O)c(O)cc12
    i | 0.9 | 1.1 | -62 | 48 | 16* | 7
CSc1ncc(Cl)c(C(=O)Nc2sc3c(c2C(=O)NCc2ccco2)CCCC3)n1
    i | 0.99 | -0.8 | -20 | 102 | 96 | 0
O=C(NCCO)C1COc2ccccc2O1 (stereo unspecified)
    i | 1.1 | . | . | . | 98 | -8
Cc1cc(C)c2nc(NC(=O)C3CCCO3)sc2c1 (stereo unspecified)
    i | 0.9 | -0.3 | -29 | 115 | 103 | -2
Cc1ccc([N+](=O)[O-])c(OCCN2CCNCC2)c1
    i | 1 | 0.1 | -12 | 126 | 103 | 4
CCOC(=O)C1=NNC(C(=O)c2ccccc2)C1c1ccc(C)cc1 (stereo unspecified)
    i | 1.2 | . | . | . | 102 | .
CCn1c2ccc(C)cc2c2nc3cc(C(=O)O)ccc3nc21
    i | 1 | -0.7 | . | . | 98 | -2
COc1c2ccoc2nc2c(OC)cccc12
    i | 0.93 | -2.5 | 25 | 90 | 91 | 1
Cc1nn(C)cc1C(=O)NNC(=S)Nc1ccc(Cl)cc1
    i | 0.99 | -3.8 | 12 | 105 | 101 | -3
Cc1ccccc1Nc1nc(-c2ccccc2)c(C(=O)Nc2cccnc2)s1
    i | 0.84 | 0.7 | . | . | 100 | 0
Cn1c(SCc2nc(-c3ccccc3)no2)nnc1-c1ccco1
    i | 0.96 | -2.1 | -27 | 105 | 81 | -7
Cc1nn(C)c(C)c1NC(=O)Nc1cccc(C(F)(F)F)c1
    i | 0.9 | -3.9 | -31 | 138 | 92 | 5
C/C(=N\NC(=O)c1cccc([N+](=O)[O-])c1)c1cccc(NC(=O)C2CC2)c1
    i | 0.88 | . | . | . | 102 | -4
COC(=O)Cc1cc(=O)oc2cc(O)ccc12
    i | 1 | . | . | . | 103 | 6
COc1ccc(OC)c(-c2cc(C(=O)Nc3cc(C)n(Cc4ccc(Cl)cc4)n3)no2)c1
    i | 1.1 | -1.1 | 20 | 79 | 99 | 0
COc1cccc(C(c2c(O)nc(SC)n(C)c2=O)c2c(O)nc(SC)n(C)c2=O)c1
    i | 0.94 | -1.1 | 17 | 152 | 106 | -11
CCC(C)NC(=O)CSc1nnc(-c2ccoc2C)n1CC1CCCO1 (stereo unspecified)
    i | 0.94 | -1.5 | 27 | 103 | 99 | -3

# RGS16-Gao HTS: hit marks shown above.
smiles	HSV augment	HSV augment primary fold	GALR2 ag	RGS16-Gao HTS	PKD1 kinase inh
Cc1c(Br)c(=O)oc2c(Br)c(O)c(O)cc12	i	0.9	1.1	16*	7

# Other results.
# Screens by letter: A = HSV augment; B = HSV augment primary fold; C = GALR2 ag; D = Insulin prom inh; E = Insulin prom inh cell count; F = RGS16-Gao HTS; G = PKD1 kinase inh
CCCS(=O)(=O)c1nc(C)cc(C)c1S(C)(=O)=O
  A: i	B: 1.1	C: .	D: -36	E: 71	F: 101	G: 1
O=[N+]([O-])c1cc(C(F)(F)F)ccc1Sc1ccc2ccccc2n1
  A: i	B: 0.94	C: -2.6	D: .	E: .	F: 104	G: -2
COc1cccc(NC(=O)Nc2nnc(N3C(C)CCCC3C)s2)c1 (stereo unspecified)
  A: i	B: 0.89	C: .	D: .	E: .	F: 100	G: .
Cc1ccc2c(c1)NC(=O)C(CC(=O)NCc1cccnc1)O2 (stereo unspecified)
  A: i	B: 1	C: -1.8	D: .	E: .	F: 285	G: 5
CCOC(=O)c1cnc(-n2nc(C)cc2C)nc1Nc1cccc(C(C)=O)c1
  A: i	B: 1	C: -1.0	D: -17	E: 113	F: .	G: -5
O=c1c2c(nc3n1CCCCC3)-c1ccccc1CC21CCCC1
  A: i	B: 0.96	C: -1.5	D: .	E: .	F: 105	G: -9
O=C(O)CSc1cc(NS(=O)(=O)c2cccc([N+](=O)[O-])c2)c2ccccc2c1O
  A: i	B: 0.93	C: .	D: .	E: .	F: 78	G: .
COc1cccc(NC(=O)Nc2nnc(N3CCCCC3C)s2)c1 (stereo unspecified)
  A: .	B: .	C: -0.3	D: 40	E: 91	F: 82	G: -2
c1ccc2c(c1)nc(N1CCOCC1)c1ccccc12
  A: i	B: 0.91	C: .	D: 50	E: 115	F: 103	G: -1
CCCc1cc(=O)[nH]c(SCC(=O)N2CCCc3ccccc32)n1
  A: i	B: 1.1	C: .	D: .	E: .	F: 104	G: -2
CC1CCc2c(nc3nc[nH]n3c2=O)C1 (stereo unspecified)
  A: i	B: 0.99	C: 0.0	D: 42	E: 160	F: 105	G: 3
COC(=O)c1cc(OC)c(OC)cc1NC(=O)c1cccc(OC)c1OC
  A: i	B: 0.89	C: .	D: .	E: .	F: 105	G: -7
Nn1c(SCC(=O)NCCCc2ccccc2)nnc1-c1cccnc1
  A: i	B: 1.1	C: .	D: .	E: .	F: 109	G: .
CC(C)(C)c1ccc(C(=O)/C=C2\NC(=O)CS2)cc1
  A: i	B: 0.96	C: -2.9	D: 19	E: 51	F: 96	G: 2
S=C(NC1CCCC1)N1CCN(c2ccccn2)CC1
  A: i	B: 1.1	C: -1.1	D: .	E: .	F: 102	G: 1
CCOC(=O)CCCCC(=O)c1[nH]c(=O)[nH]c1CSc1nnc2c3ccccc3n(C(C)C)c2n1
  A: i	B: 0.88	C: -0.1	D: -30	E: 83	F: 96	G: -2
CC(=O)C1=C(C)OC(N)=C(C#N)C1c1ccco1 (stereo unspecified)
  A: i	B: 1	C: -2.3	D: .	E: .	F: 100	G: -6
CCOC(=O)N1CCC(=NNc2ccc(S(N)(=O)=O)cc2[N+](=O)[O-])CC1
  A: i	B: 0.89	C: .	D: .	E: .	F: 103	G: 1
CC(=O)N[C@@H]1c2c(ccc3ccccc23)OC[C@@H]1COC(C)=O
  A: i	B: 0.98	C: .	D: 7	E: 80	F: 99	G: 0
COc1ccc(C(C)NC(=S)NC2CCCC2)cc1OC (stereo unspecified)
  A: i	B: 1.2	C: -0.4	D: .	E: .	F: 93	G: -1

# A draw from above in order of SMILES length, highest first:
# Screens by letter: A = HSV augment; B = HSV augment primary fold; C = GALR2 ag; D = Insulin prom inh; E = Insulin prom inh cell count; F = RGS16-Gao HTS; G = PKD1 kinase inh
CCOC(=O)N1CCC(=NNc2ccc(S(N)(=O)=O)cc2[N+](=O)[O-])CC1
  A: i	B: 0.89	C: .	D: .	E: .	F: 103	G: 1
CC(=O)N[C@@H]1c2c(ccc3ccccc23)OC[C@@H]1COC(C)=O
  A: i	B: 0.98	C: .	D: 7	E: 80	F: 99	G: 0
CC(=O)C1=C(C)OC(N)=C(C#N)C1c1ccco1 (stereo unspecified)
  A: i	B: 1	C: -2.3	D: .	E: .	F: 100	G: -6
S=C(NC1CCCC1)N1CCN(c2ccccn2)CC1
  A: i	B: 1.1	C: -1.1	D: .	E: .	F: 102	G: 1
